# KCNQ2 pot – potentiators of rat KCNQ2 potassium channel; O88943; CHO-K1 KCNQ2, FluxOR thallium flux fluorescence; stronger effect = higher value; B-score at 10 µM; hit rate 0.54% among 310,000; AID 2239;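 active = fluorescence ratio B-score at least 3 SD of library B-scores, with initial fluorescence B-score within 3 SD, cut at about 5.3 in these data; same plate scores as AID 2156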;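 also: B-score of peak minus minimum over baseline fluorescence ratio after K+ and Tl+ stimulus; positive B-score means potentiation of KCNQ2 with more thallium influx and brighter signal; only the inactives scoring about 0 or higher are listed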
# Target sequence (O88943 whole entry, looked up): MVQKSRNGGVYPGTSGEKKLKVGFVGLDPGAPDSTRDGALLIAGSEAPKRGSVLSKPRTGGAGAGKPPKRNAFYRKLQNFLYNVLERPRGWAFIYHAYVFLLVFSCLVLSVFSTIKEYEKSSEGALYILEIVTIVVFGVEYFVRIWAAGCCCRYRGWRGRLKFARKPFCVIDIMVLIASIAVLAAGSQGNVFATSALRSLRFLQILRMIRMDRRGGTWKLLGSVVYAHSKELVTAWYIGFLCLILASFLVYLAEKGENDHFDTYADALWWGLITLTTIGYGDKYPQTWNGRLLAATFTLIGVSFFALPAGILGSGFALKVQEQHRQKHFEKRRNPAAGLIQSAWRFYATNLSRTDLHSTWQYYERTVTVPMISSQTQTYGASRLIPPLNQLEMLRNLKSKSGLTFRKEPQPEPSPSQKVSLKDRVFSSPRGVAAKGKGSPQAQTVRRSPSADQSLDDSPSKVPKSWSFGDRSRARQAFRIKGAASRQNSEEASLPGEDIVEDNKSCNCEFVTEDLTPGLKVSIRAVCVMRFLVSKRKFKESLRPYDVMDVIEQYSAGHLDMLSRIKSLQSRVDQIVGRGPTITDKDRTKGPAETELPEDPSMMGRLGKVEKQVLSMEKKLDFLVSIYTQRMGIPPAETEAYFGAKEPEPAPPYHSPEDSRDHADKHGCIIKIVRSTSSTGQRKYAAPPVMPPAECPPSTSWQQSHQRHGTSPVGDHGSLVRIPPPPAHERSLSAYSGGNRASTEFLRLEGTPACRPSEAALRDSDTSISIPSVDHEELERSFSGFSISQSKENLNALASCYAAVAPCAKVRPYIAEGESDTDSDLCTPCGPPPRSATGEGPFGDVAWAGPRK
# KCNQ2 pot baseline – also measured in KCNQ2 pot; calls as there; B-score; compound at 10 µM; measured here: initial fluorescence intensity artifact check;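 brightness before thallium and not channel activity; 0 = typical well and far values either way flag optical interference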
# Starred values were filed as active, the others as inactive. Only part of the results is shown; count on the stated rates, not on these rows.
no.	Structure	KCNQ2 pot	KCNQ2 pot baseline
1	CN1N=C(C(=O)N2CCN(c3ccc([N+](=O)[O-])cc3)CC2)CCC1=O	0.57	-0.17
2	Cc1cc(OCC(=O)Nc2nnc(C3CC3)s2)ccc1[N+](=O)[O-]	1	0.45
3	NC(=O)c1ccsc1NC(=O)c1ccc(S(=O)(=O)N2CCCC2)cc1	1.2	-1
4	COc1ccccc1CN1CCc2c([nH]c3ccccc23)C1	0.73	0.02
5	CC(C)c1ccc(S(=O)(=O)c2n[nH]n3c2nc(=O)c2ccccc23)cc1	2.1	-2.4
6	O=C1N=C(N2CCCCC2)SC1=C1CCCC1	1.4	1
7	O=C(NCC1(N2CCCCC2)CCCCC1)c1ccc(NS(=O)(=O)c2ccc(F)cc2)cc1	2.2	0.54
8	Cc1cc(NS(=O)(=O)c2ccc(CC(C)C)cc2)no1	1.6	1.4
9	CCCCCOc1ccc(N2C(=O)C3C4C=CC(C3C2=O)N(C)C4=O)cc1 (stereo not given)	0.4	1.1
10	CCOC(=O)c1c(-c2ccccc2)oc2ccc(OC)cc12	0.5	-0.37
11	Cc1c(CCC(=O)O)c(=O)n2c([nH]c3ccccc32)c1C#N	0.17	-0.34
12	COc1ccc(CNc2ncc(-c3ccccc3)n2C)c(OC)c1OC	0.9	-1.4
13	CCC(NS(=O)(=O)c1cn(C)nc1C)c1ccccc1 (stereo not given)	0.01	0.34
14	CN(C)S(=O)(=O)c1cccc(NC(=S)NCc2ccc3c(c2)OCO3)c1	2.3	1
15	Cc1cccc(NC(=O)c2ccc([N+](=O)[O-])cc2Cl)n1	1.1	0.2
16	COC(=O)c1ccccc1NC(=S)N(C)C	0.05	-2.2
17	Cc1[nH]nc2c1C1(C(=O)N(Cc3ccc(Cl)cc3)c3ccccc31)C(C#N)=C(N)O2 (stereo not given)	0.2	0.87
18	O=C(NC1CCCCC1)N1CCCC(c2nc(-c3cccs3)no2)C1 (stereo not given)	0.33	-0.31
19	CCn1nc(C)c(/C=N/NC(=O)Cn2nc(C)cc2C)c1C	0.05	0.02
20	COc1ccc(-c2csc(Nc3ccc(C)cn3)n2)cc1OC	2.8	-0.47
21	CCOc1ccc2oc(C(=O)O)c(C)c2c1	0.03	0.96
22	COCCNCCOCCOc1ccc(Cl)c(C)c1	0.33	-0.16
23	Cc1ccc(S(=O)(=O)Nc2ccc3c(c2)CCC3)cc1	1.4	-2
24	C#CCOC(=O)C(NC(=O)c1ccccc1)=C(C)C	0.38	-1.8
25	Cc1c(C(=O)N2CCN(c3cccc(Cl)c3)CC2)cccc1[N+](=O)[O-]	0.14	0.01
26	Cc1ccc(S(=O)(=O)CCC(=O)Nc2ccccc2Br)cc1	1	-0.05
27	COc1ccc2cc(C(=O)N3CCCCCC3)sc(=O)c2c1OC	0.99	-2.8
28	O=C(Nc1ccc(Br)cn1)c1ccc([N+](=O)[O-])cc1Cl	1.3	-1.3
29	COC(=O)COc1ccc(S(=O)(=O)NCc2cccnc2)cc1C	0.58	1.1
30	O=C(NC1(C(F)(F)F)C(=O)Nc2c1c(=O)[nH]c(=O)n2Cc1ccco1)C1CC1 (stereo not given)	0.97	0.52
31	Cc1csc(CNC(=O)C2CCC(=O)N(CCc3cccc(F)c3)C2)n1 (stereo not given)	0.15	-2.7
32	CS(=O)(=O)Nc1ccc(C(=O)CC(=O)Nc2ccc([N+](=O)[O-])cc2)cc1	0.67	-1.3
33	Cc1ccc(C(=O)O)cc1NS(=O)(=O)c1ccc2ccccc2c1	0.54	0.42
34	CCc1cccc(OCCn2ccnc2)c1	1.5	-0.33
35	CCSc1nc(N2CCOCC2)c2ccccc2n1	0.49	-0.59
36	O=C(Nc1ccc(N2CCOCC2)cc1)c1ccc2nc(-c3ccco3)c(-c3ccco3)nc2c1	2.3	-0.67
37	O=C(CN1C(=O)c2ccccc2S1(=O)=O)NC1CCCCCC1	0.09	0.71
38	Nc1nc(SCC(=O)NCc2ccc(F)cc2)[nH]c(=O)c1NC(=O)c1ccc(Cl)cc1	0.69	0.01
39	Cc1ccc(Nc2ccc(C(N)=O)cc2[N+](=O)[O-])cc1	1.4	-0.93
40	CC(=O)NC(CC(=O)NCC(=O)Nc1ccc(F)c(F)c1)c1ccccc1 (stereo not given)	0.07	-0.56
41	c1ccc(Nc2cccc(Nc3ccccc3)c2)cc1	0.81	0.29
42	CCc1ccc(C2C3=C(CCCC3=O)OC3=C2C(=O)CCC3)cc1	0.4	-0.05
43	CCOC(=O)C1CCCN(Cc2nc(N)nc(Nc3ccc(C)cc3)n2)C1 (stereo not given)	0.55	0.06
44	CSc1nsc(SCC(=O)NCc2ccccc2)n1	0.13	2.4
45	COC(=O)c1sc(-c2ccccc2)cc1NC(C)=O	1.6	1.8
46	CCOc1ccc(OC(=O)c2cccnc2)cc1	1.7	0.24
47	O=C(Cn1c(=O)oc2cccnc21)Nc1ccc(C(F)(F)F)cc1	1.9	-0.48
48	Cc1ccc(C(=O)C2=C(O)C(=O)N(c3ncccn3)C2c2ccc(Br)cc2)o1 (stereo not given)	0.12	0.03
49	Cc1ccc(-n2c(Cc3cccn3C)nnc2SCC(=O)NCc2ccc3c(c2)OCO3)cc1	1.7	-0.18
50	C=CCn1cccc(C(=O)Nc2cc(OC)ccc2OC)c1=O	0.43	-0.43
51	COc1cccc(C2CC(c3ccc(F)cc3)Nc3nc(N)nn32)c1 (stereo not given)	0.62	-0.04
52	COc1ccc(-n2c(=O)/c(=C\c3cccs3)s/c2=C(/C#N)C(=O)NCCN2CCOCC2)cc1	1.4	0.19
53	Cc1c(CCC(=O)NCCCC(=O)O)c(=O)oc2cc3oc4c(c3cc12)CCCC4	1.3	0.06
54	COCCCNC(=O)C(C#N)c1nc2ccccc2nc1N1CCCC1 (stereo not given)	1.8	0.51
55	O=C(CSc1nc(-c2ccco2)cc(C(F)(F)F)n1)NN1CCOCC1	0.12	-0.02
56	COc1ccc(-c2cccc(C3CC=CC4C3C(=O)N(Cc3ccccc3)C4c3cc(C)ccc3F)c2)cc1 (stereo not given)	0.09	-0.14

# 4 entries from above, ordered by the value under KCNQ2 pot, descending:
no.	Structure	KCNQ2 pot	KCNQ2 pot baseline
29	COC(=O)COc1ccc(S(=O)(=O)NCc2cccnc2)cc1C	0.58	1.1
1	CN1N=C(C(=O)N2CCN(c3ccc([N+](=O)[O-])cc3)CC2)CCC1=O	0.57	-0.17
48	Cc1ccc(C(=O)C2=C(O)C(=O)N(c3ncccn3)C2c2ccc(Br)cc2)o1 (stereo not given)	0.12	0.03
56	COc1ccc(-c2cccc(C3CC=CC4C3C(=O)N(Cc3ccccc3)C4c3cc(C)ccc3F)c2)cc1 (stereo not given)	0.09	-0.14

# Next section.
no.	Structure	KCNQ2 pot	KCNQ2 pot baseline
57	Cc1ccc(CN(C(=O)COc2ccc(C)c(C)c2)C2CCS(=O)(=O)C2)o1 (stereo not given)	0.15	1.6
58	O=C(Nc1cnn(Cc2ccc(Cl)cc2)c1)c1cnccn1	0.01	-0.39
59	CCOC(=O)c1c(C)oc2cc(Br)c(OCC(N)=O)cc12	0.66	-0.01
60	CC(=O)Nc1ccc(S(=O)(=O)NNC(=O)CCC(=O)Nc2cc(C)ccc2C)cc1	0.17	0.57
61	COc1ccc(S(=O)(=O)Nc2cc(C)c(O)c(S(=O)(=O)c3ccccc3)c2)cc1	1.6	0.26
62	Cc1ccc2nc(NC(=O)CSCC(=O)OCC(=O)c3ccc(Br)cc3)sc2c1	1.1	-0.27
63	CC(=O)c1cnc2cc(-c3ccccc3)nn2c1C	0.44	-0.1
64	CCOc1ccc(/C=C/c2nc(C#N)c(NCCCOC)o2)cc1	0.03	-1.9
65	O=C(c1ccncc1)N1CCN(c2cccc(C(F)(F)F)c2)CC1	0.28	3.5
66	Cc1cc(=O)oc2cc(Oc3ccc([N+](=O)[O-])cc3[N+](=O)[O-])ccc12	0.01	-0.37
67	O=C(Cc1ccccc1)Nc1cccc(N2C(=O)C=CC2=O)c1	1.5	0.58
68	CC(C)CNS(=O)(=O)c1ccc(CCC(=O)N2CCOCC2)cc1	0.18	1
69	COc1ccc(N2C(=O)/C(=C/c3ccc([N+](=O)[O-])cc3)N=C2C)cc1	0.93	-1.6
70	O=C(c1ccccc1)c1ncc[nH]1	1.3	0.13
71	CN(C)/C=C\C(=C/C(=O)C(F)(F)F)Nc1ccccc1Oc1ccccc1	0.27	1.4
72	Cn1cc([N+](=O)[O-])c(C(=O)Nc2ccc(C(=O)N3CCCCC3)cc2)n1	0.57	-0.56

# Retrieved by structure from the entries so far:
no.	Structure	KCNQ2 pot	KCNQ2 pot baseline
69	COc1ccc(N2C(=O)/C(=C/c3ccc([N+](=O)[O-])cc3)N=C2C)cc1	0.93	-1.6
65	O=C(c1ccncc1)N1CCN(c2cccc(C(F)(F)F)c2)CC1	0.28	3.5
66	Cc1cc(=O)oc2cc(Oc3ccc([N+](=O)[O-])cc3[N+](=O)[O-])ccc12	0.01	-0.37
67	O=C(Cc1ccccc1)Nc1cccc(N2C(=O)C=CC2=O)c1	1.5	0.58

# (continued)
no.	Structure	KCNQ2 pot	KCNQ2 pot baseline
73	CCOc1cc(C2NC(=O)NC(O)(C(F)(F)F)C2C(=O)c2ccccc2)ccc1OC (stereo not given)	1.1	-0.81
74	O=S1(=O)N=C(N/N=C/c2ccc(Br)o2)c2ccccc21	0.66	-2.4
75	O=C(Nc1cccc(OCC(=O)N2CCOCC2)c1)c1cccc([N+](=O)[O-])c1	1.2	-0.09
76	CSc1ccc(S(=O)(=O)NCC(=O)OCC(=O)NCc2cccs2)cc1[N+](=O)[O-]	0.08	2.2
77	CC(C)CNC(=S)N(Cc1ccco1)Cc1cc2cc3c(cc2[nH]c1=O)OCCO3	0.06	-0.66
78	CC12CCC(C/C1=N/O)C2(C)C (stereo not given)	0.17	0.03
79	CCOc1ccc(NC(=O)CCC(=O)n2nc(C)cc2C)cc1	0.06	-1.9
80	C=CCn1c(COc2ccccc2F)nnc1SCCN1C(=O)c2ccccc2C1=O	1.3	0.28
81	COc1ccc(C2/C(=C(\O)c3ccc4c(c3)OCCO4)C(=O)C(=O)N2Cc2cccnc2)cc1OC (stereo not given)	1.3	0.58
82	O=C(COC(=O)C1CCN(c2ccc(C(F)(F)F)cn2)CC1)c1ccccc1	0.18	-0.1
83	COc1ccc(C(=S)N2CCN(C)CC2)cc1	0.67	-1.5
84	COc1cc(CSc2nc(-c3ccccc3)cc(=O)[nH]2)cc(OC)c1	1.2	2.2
85	N#Cc1c(-c2ccc(Cl)cc2)nc2n(c1=O)CCCS2	0.33	1.7
86	CC(C)CNC(=O)Cn1c(=O)c2c(ncn2CC(C)C)n(Cc2ccccc2)c1=O	1	0.24
87	COc1ccc(OC)c(NC2=NC3(CCCCC3)N=C(N)N2)c1	1.2	-2
88	C/C(=N\Nc1nc(C)cc(C)n1)c1ccc(N2CCOCC2)cc1	1.4	0.23
89	O=C(NC(=S)Nc1ccccn1)c1ccco1	0.1	0.92
90	O=C(CN1CCCc2ccccc21)Nc1ccccc1[N+](=O)[O-]	1.2	-1.9
91	CC(=O)n1c(=O)oc2ccccc21	1.2	0.87
92	Cc1ccc(-c2csc(NC(=O)c3ccc([N+](=O)[O-])o3)n2)cc1	0.86	-0.81
93	Cc1cc(=O)oc2cc(OCc3ccc(C(=O)OCC(=O)NC4CCS(=O)(=O)C4)cc3)ccc12 (stereo not given)	0.06	-1.5
94	O=C(CN1CCOCC1)Nc1ccc(Br)cc1	0.83	-0.02
95	COc1ccc(C(=O)NCc2nnc(SCC(=O)Nc3cc(C)cc(C)c3)o2)cc1OC	0.82	-0.5
96	CCCCCC/C(=N\NS(C)(=O)=O)c1ccccc1	1.1	-0.62
97	COc1ccc(C2(C)NC(=O)N(CC(=O)Nc3ccc(Br)c(C)c3)C2=O)cc1OC (stereo not given)	0.48	0.36
98	O=S1(=O)c2cccc3cccc(c23)N1Cc1nnc(-c2ccccc2Br)o1	0.1	-0.93
99	NC(=O)c1c(NC(=O)Cn2cc([N+](=O)[O-])cn2)sc2c1CCCC2	5.2	1.4
100	Cc1nnc(N(C(=O)c2cnccn2)c2ccccc2)s1	0.92	0.39
101	COC(=O)CC[C@@H](C(=O)O)N1C(=O)c2ccccc2C1=O	1.1	-2.5
102	CC(=O)Nc1ccc(NC(=O)COC(=O)Cc2cccs2)cc1	0.13	-0.32
103	Cc1ccnc(NS(=O)(=O)c2ccc(NS(=O)(=O)c3ccc(Br)cc3)cc2)n1	1.3	-0.42
104	CCN(CC)CCCN=Cc1c(O)n(Cc2ccccc2)c(=O)c2ccccc12	0.03	-1.5
105	O=C(C1=C[C@@H](c2coc3ccccc3c2=O)C[C@@H](OCCCCO)O1)N1CCN(Cc2ccccc2)CC1	0.24	0.33
106	CCOC(=O)c1c(NC(=O)COc2cccc3c2CCN(Cc2ccc(F)cc2)C3=O)sc2c1CCC2	1	-2
107	CCOc1nnc(C)c2c(C)n(-c3ccc(Cl)cc3)nc12	0.58	-0.06
108	S=c1[nH]nc(-c2ccncc2)n1CC1CCCO1 (stereo not given)	1.5	0.05
109	CCNC(=O)N1CCNC(=O)C1CC(=O)Nc1ccc(C(=O)OCC)cc1 (stereo not given)	1.5	-0.41
110	CCCCOc1ccc(CSc2nncn2N)cc1	1.1	0.16
111	Cc1[nH]c2ccccc2c1CCC(N)=O	0.44	0.18
112	COCCNC(=O)c1c(C)cc(C)cc1C	0.44	-2.4

# Along the list, as entered above:
# KCNQ2 pot baseline for nos. 105–112 → 0.33, -2, -0.06, 0.05, -0.41, 0.16, 0.18, -2.4

# (listing goes on)
no.	Structure	KCNQ2 pot	KCNQ2 pot baseline
113	O=C(Nc1sc2c(c1C(=O)O)CCC2)c1ccco1	0.14	-0.74
114	O=C(N/N=C/c1ccccn1)c1cc(-c2ccccc2)nc2ccccc12	11*	0.07*
115	Cc1ccnc(NC(=O)c2ccc(Br)s2)c1	3.5	0.27
116	CC1CCN(C(=O)c2ccc(Br)c(S(=O)(=O)N3CCOCC3)c2)CC1	1.3	-1.5
117	CCOC(=O)/C=C/S(=O)(=O)c1ccc(NC(C)=O)cc1	1.1	0.51
118	COc1cc(NC(=O)CSCC(=O)Nc2cc(OC)cc(OC)c2)cc(OC)c1	0.14	-1.2
